T cruzi repl: blocks replication of Trypanosoma cruzi; inhibition, % (concentration not given with the values); 300,000 tested, 1.4% active; T. cruzi beta-gal in NIH3T3, luminescence, 90 h;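 active means mean inhibition across valid replicates above about 55%, limit read from the data; inconclusive means mean below that limit but half or more replicates reach it; inactive means mean below it, under half of replicates reach it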;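 further: signal also drops with host cell toxicity which is not excluded here; 0% = plate median of DMSO wells and 100% = zero luminescence signal; higher percent means less beta-gal luminescence so fewer parasites; stock transfer was 50 nL into about 50 µL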
AF4-AF9 inh: MLL-AF4/AF9 protein interaction inhibition; AlphaScreen, biotin-AF4 peptide binding to FLAG-AF9; inhibition, % at 10 µM; 350,000 tested, 0.47% active;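 active means every replicate reaching a set inhibition limit, whatever the replicate mean, cut at about 25% in these data; inconclusive means mean inhibition reaches that limit but some replicates miss it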;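 further: 0% = plate neutral control median and 100% = total signal loss; the record names both 10 and 1 µM as test concentration; the first replicate is given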
Calb FLC: affects C. albicans growth with fluconazole; C. albicans CaCi-2 (fluconazole-resistant clinical isolate) + fluconazole, Alamar Blue growth, 48 h; growth inhibition, % (concentration not given with the values); 300,000 tested, 0.57% active;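 active means most replicates above 75%; inconclusive means exactly half above 75%; inactive means most below 75%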;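 further: all wells also contain fluconazole at 8 µg/ml as a sub-toxic cotreatment; 0% = median of DMSO wells and 100% = median of geldanamycin control wells; wells of about 8 µL received 7.5 nL stock; the first replicate is given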
LANA-H2B inh: blocks KSHV LANA binding to histone H2A/H2B. inhibition, % (test concentration not listed). Q9QR71. 320,000 tested, 0.6% active. cell-free LANA-H2A/H2B peptide, fluorescence polarization; in the data active means inhibition mostly above about 10%, no sharp cut-off; inactive means mostly below about 6.7%;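 further: stock transfer was 7.5 nL into about 10 µL; 0% = median of vehicle wells and 100% = median of positive control wells; one replicate is shown; the record names a cut of 25% in any replicate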
Target sequence (Q9QR71 whole entry, looked up): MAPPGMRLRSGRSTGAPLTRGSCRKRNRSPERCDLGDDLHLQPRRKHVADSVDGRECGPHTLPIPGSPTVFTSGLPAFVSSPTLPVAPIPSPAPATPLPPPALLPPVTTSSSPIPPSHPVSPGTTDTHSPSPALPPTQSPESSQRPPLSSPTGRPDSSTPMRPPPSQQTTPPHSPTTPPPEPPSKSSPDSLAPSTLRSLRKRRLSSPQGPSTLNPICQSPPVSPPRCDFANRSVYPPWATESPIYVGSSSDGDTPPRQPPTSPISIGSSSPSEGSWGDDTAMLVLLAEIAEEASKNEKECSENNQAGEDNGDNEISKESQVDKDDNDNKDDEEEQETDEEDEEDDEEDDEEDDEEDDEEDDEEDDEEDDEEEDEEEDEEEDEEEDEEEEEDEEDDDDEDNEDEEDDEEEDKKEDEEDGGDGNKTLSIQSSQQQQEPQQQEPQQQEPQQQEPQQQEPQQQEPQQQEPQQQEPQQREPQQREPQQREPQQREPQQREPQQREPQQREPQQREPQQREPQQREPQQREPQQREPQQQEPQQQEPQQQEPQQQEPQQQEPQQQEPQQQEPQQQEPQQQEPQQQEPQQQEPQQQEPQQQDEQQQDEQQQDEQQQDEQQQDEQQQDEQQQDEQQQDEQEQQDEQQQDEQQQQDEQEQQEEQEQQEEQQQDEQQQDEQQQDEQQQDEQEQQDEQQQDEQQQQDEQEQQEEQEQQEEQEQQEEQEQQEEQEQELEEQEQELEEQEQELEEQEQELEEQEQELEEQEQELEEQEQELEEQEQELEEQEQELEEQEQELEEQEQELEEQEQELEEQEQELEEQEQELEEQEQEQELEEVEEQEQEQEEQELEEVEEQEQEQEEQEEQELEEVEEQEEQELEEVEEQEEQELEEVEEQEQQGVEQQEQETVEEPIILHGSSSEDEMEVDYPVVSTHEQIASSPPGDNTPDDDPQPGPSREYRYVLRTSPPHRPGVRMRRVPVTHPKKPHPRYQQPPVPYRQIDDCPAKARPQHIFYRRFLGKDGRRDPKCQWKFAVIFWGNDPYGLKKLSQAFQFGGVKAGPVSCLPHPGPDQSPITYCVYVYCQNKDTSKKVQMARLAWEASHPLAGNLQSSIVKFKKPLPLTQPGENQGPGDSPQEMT
Vif TR-FRET: inhibitors of Vif binding to APOBEC3G peptide, primary screen, biochemical, TR-FRET, GST-Vif 1-94, biotin-A3G peptide, dose response retest (AID 1117319); TR-FRET GST-Vif / biotin-A3G peptide binding; higher % means a stronger effect; test concentration not given here; strong numbers were not always called active; one-dose inhibition, %; IC50 in µM for titrated hits; 260,000 tested, 0.57% active;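 active means above the screen mean plus three standard deviations and confirmed in dose response; inconclusive means results disagree or hit not tested in dose response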;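 further: Vif residues 1-94 fused to GST binding biotinylated APOBEC3G peptide 110-148; 0% = full assay without inhibitor and 100% = GST in place of GST-Vif; retest series ran down from 100 µM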
RanGTP-Impb inh: inhibitors of RanGTP-importin-beta interaction, primary screen, biochemical, FRET, CFP-Ran, YFP-importin-beta, homogeneous. AID 2216. cell-free CFP-Ran/YFP-importin-beta FRET ratio. inhibition, % (test concentration not listed). 300,000 tested, 1.1% active;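 active means most replicates above 15%; inconclusive means exactly half above 15%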;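 further: 0% = DMSO wells and 100% = Ran loaded with GDP instead of GTP; wells of about 40 µL received 100 nL stock; the first replicate is given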
A1 inh: inhibitors of the anti-apoptotic protein A1, read as caspase activation. caspase activation, % (concentration not given with the values). 330,000 tested, 0.066% active. MEF A1-2A-BIM cells, Caspase-Glo 3/7 luminescence, 3 h; percent of clofoctol response, vehicle zero;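 active means over half of replicate activation scores above 10%, or exactly half above 10 with the replicate mean above 10; inconclusive means replicate mean below 10 yet half the replicates above 10; inactive means over half of replicates below 10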;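 further: wells of about 30 µL received 50 nL stock; many hits fall short of the cut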
Beta apoptosis: blocks beta cell apoptosis. protection from apoptosis, % (test concentration not listed). 300,000 tested, 0.8% active. INS-1E cytokine-induced death, ATP luminescence, 48 h; percent of positive-control rescue, neutral wells zero. AID 435005;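 active means all replicates at 75% or more, or half of them and the mean; inconclusive means half reach 75% but not the mean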;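 further: 0% = cytokine-treated negative control wells and 100% = positive control rescue; higher means more ATP so stronger rescue from cytokine killing; wells of about 40 µL received 100 nL stock; the first replicate is given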
Starred values were filed as active, the others as inactive; ? = inconclusive; · = not tested or not shown. An unsorted share of the library; about 4.3% have a hit in one of these screens.

SMILES | T cruzi repl | AF4-AF9 inh | Calb FLC | LANA-H2B inh | Vif TR-FRET | RanGTP-Impb inh | A1 inh | Beta apoptosis
COc1ccccc1OC(=O)c1ccc2nsnc2c1 | -18 | · | -3 | 4.8 | -4% | 3.7 | -0.2 | 1
S=c1nc(C2CC2)n(-c2ccccc2)[nH]1 | -1 | -15 | 22 | -1.5 | · | 3.7 | 0.7 | -3
Cc1nnc(NCCc2ccccc2)n(N)c1=O | 8 | · | -1 | 6.7 | 82% | 0.3 | -0.9 | -4
Cn1c(CN2CCCCC2)nc2cc(NC(=O)c3ccc(Cl)cc3)ccc21 | 18 | · | -3 | 0.4 | -1% | 1.4 | 0.2 | 3
Cc1ccc(N2CCN(C(=O)c3nn(C)c4c3CS(=O)(=O)c3ccccc3-4)CC2)c(C)c1 | 9 | · | -3 | -2.1 | · | -1.7 | 0.2 | -4
COc1ccc(NC(=O)COC(=O)CCCC2=NS(=O)(=O)c3ccccc3N2)cc1Cl | 6 | -13 | -4 | 0.1 | · | -0.7 | 0.3 | -4
Cc1c(N/C=C/C(=O)c2cccs2)c(=O)n(-c2ccccc2)n1C | -8 | · | 0 | 0.9 | ? | -1.0 | -0.4 | -1
CCN(CC(=O)Nc1c(F)cccc1F)C(=O)c1ccc(Cl)c(S(=O)(=O)N2CCCC2)c1 | 4 | -15 | · | 0.0 | -1% | -2.3 | -0.3 | -3
O=C(CSc1ncnc2sc3c(c12)CCC3)Nc1ccccc1C(=O)O | 1 | -13 | 0 | -2.6 | 0% | -2.6 | 0.6 | 4
Cc1cc(C(=O)NCC(c2ccco2)N(C)C)ccc1[N+](=O)[O-] (stereo not drawn) | -4 | 46* | 6 | -2.8 | · | 5.8 | 0.6 | -1
COc1cccc(NC(=S)NNC(=O)c2c([N+](=O)[O-])c(C)nn2C)c1 | -16 | · | -9 | · | 6% | -0.3 | · | ·
CCOC(=O)C1(Cc2cccc(F)c2)CCN(Cc2ccon2)CC1 | 13 | -0.2 | -8 | 4.9 | -5% | 2.0 | 0.7 | 0
Cc1ccc(C(=O)Nc2ccc(N3CCN(C(=O)c4cccs4)CC3)cc2)c(Cl)c1 | 3 | 0.5 | 7 | -1.8 | · | -4.1 | 0.4 | -2
CCN(CC)C(=O)Cn1cnc2ccccc2c1=O | -16 | · | 3 | 2.4 | 26% | -1.7 | -0.1 | 0
CCCNC(=O)CC1C(=O)N(Cc2ccccc2)C(C)c2nc3ccccc3n21 (stereo not drawn) | 5 | · | 0 | -3.3 | ? | -4.6 | 0.4 | -8
Cc1cc2occ(CC(=O)N(C)CC(=O)Nc3cccc(F)c3)c2cc1C | -4 | -0.1 | -2 | -0.2 | · | 3.0 | 0.6 | -6
CC(C)N1CCc2c(sc(NC(=O)c3ccc(S(=O)(=O)N4CCOCC4)cc3)c2C#N)C1 | 4 | · | -1 | 0.2 | 31% | 43* | 0.4 | -3
O=C(C1CCN(C2CC(=O)N(Cc3ccccc3)C2=O)CC1)N1CCCCCC1 (stereo not drawn) | 0 | · | -2 | -6.1 | 22% | -3.1 | 0.4 | 0
CCOC(=O)c1ccc(Nc2nc(C)cc(C)n2)cc1 | -6 | 1.4 | 4 | 0.7 | -6% | -1.3 | -2.0 | 2
CC1=NN(C(N)=S)C(=O)C1N=Nc1cccc([N+](=O)[O-])c1 (stereo not drawn) | -4 | -4.5 | -2 | 0.0 | 37% | 1.8 | -7.8 | ·
Cc1ccc(C)c(N2CCN(S(=O)(=O)c3c(C)noc3C)CC2)c1 | 13 | 2.9 | -3 | -2.5 | · | -0.9 | 0.4 | ·
COc1ccc(NC(=O)CCCCCn2nnc3ccccc3c2=O)cc1 | -6 | 0.9 | -8 | 2.1 | · | ? | 0.1 | 11
COc1ccccc1NC(=O)CSc1n[nH]c(-c2cccnc2)n1 | -13 | -1.8 | -1 | -1.2 | · | 11 | 0.1 | -1
O=C(Nc1nc(-c2ccccc2)ns1)c1cccs1 | -12 | -8.9 | -11 | -2.3 | -1% | -0.1 | -3.1 | 15
CC(=O)N(Cc1cc2c(C)cc(C)cc2[nH]c1=O)C1CCCCC1 | 7 | · | 16 | -1.1 | 5% | 6.7 | -0.5 | 2
CCOC(=O)C1=C(C)N(CCCC(=O)O)C(=O)NC1c1ccccc1Cl (stereo not drawn) | 2 | -4.5 | -7 | 0.2 | · | -1.0 | -2.6 | -3
COc1ccc(NC(=O)CSc2nnc(Cn3cnc([N+](=O)[O-])n3)n2C)cc1 | -3 | · | 5 | · | -3% | 2.4 | -0.7 | -2
COCCNC(=S)NC1CC2CCC(C1)N2Cc1ccccc1 (stereo not drawn) | -8 | 2.5 | -5 | -0.9 | · | -0.7 | -0.3 | ·
Cc1ccc(O)c(NC(=O)c2ccco2)c1 | -21 | · | 38 | -0.8 | 1% | -1.6 | -6.7 | 4
CC(=O)NC(c1ccco1)c1cc(Cl)c2ccccc2c1O (stereo not drawn) | · | ? | · | 2.2 | · | · | 0.1 | -5
COC(=O)C(NC(=O)C(C)Oc1ccccc1)C(C)C (stereo not drawn) | 0 | 10 | 4 | 4.0 | 2% | 1.3 | 1.4 | -7
O=[N+]([O-])c1ccc(-c2nnc3cccc(Cl)n23)cc1 | -7 | 5.3 | 9 | 1.4 | 1% | -0.7 | 2.1 | 9
COC(=O)Oc1c(Br)c(=O)oc2ccccc12 | -8 | · | -1 | -3.0 | ? | -3.5 | 0.1 | ·
COc1ccccc1CNC(=O)CN(C)CC(=O)Nc1cccc(F)c1 | 1 | · | -8 | 0.0 | -9% | 4.5 | 0.1 | -8
COc1cccc(N2C(=NC(=O)c3ccccc3)SC3CS(=O)(=O)CC32)c1 (stereo not drawn) | 6 | -12 | -2 | 0.4 | 0% | ? | 0.9 | -9
CC/C(=N/NC(=O)c1ccc(Br)cc1)c1ccc(OCCN2CCOCC2)cc1 | 3 | -0.7 | 9 | 13 | -1% | -4.3 | -1.1 | -3
Nc1cccc(NC(=O)c2cccs2)c1 | -12 | · | 3 | 4.7 | -4% | -2.8 | -0.3 | 0
C(=N\Nc1nc(-c2cccnc2)nc2ccccc12)/c1ccccc1 | -9 | -0.2 | -2 | 0.0 | 20% | 6.1 | -4.1 | -3
CSc1ccc(CNCc2ccc3c(c2)OCO3)cc1 | 18 | 0.1 | -18 | -2.9 | -6% | 2.2 | -0.3 | -5
CCN1CCN(C(=O)c2cc3c(=O)n4ccccc4nc3s2)CC1 | 9 | -0.5 | 3 | -2.5 | · | 12 | -0.9 | -1
Cn1c(SCC(=O)NCC2CCCO2)nc2c(c1=O)SCC2 (stereo not drawn) | -5 | -1.4 | -1 | -2.0 | · | -5.0 | 0.8 | -2
COC(=O)c1cc(C(=O)OCC(=O)Nc2cc(C)on2)cc([N+](=O)[O-])c1 | -2 | -23 | -8 | 7.2 | ? | 3.5 | -0.3 | -7
CCOc1ccc(NS(=O)(=O)c2ccc(Cl)c(C(=O)N(C)Cc3cccnc3)c2)cc1 | · | 3.7 | · | 1.7 | · | · | 0.7 | 5
CN1CCN(C(=O)C2=C[C@H](C(C)(C)C)C[C@H](OCCCCO)O2)CC1 | -16 | 0.9 | 3 | -2.3 | · | 2.7 | -0.6 | -12
CCc1ccc(NS(=O)(=O)c2ccc3[nH]cc(C(=O)N4CCc5ccccc54)c(=O)c3c2)cc1 | -27 | · | 22 | 2.5 | · | -2.8 | -0.7 | -2
COc1cccc(CN(C)C(=O)c2cc(-c3cccs3)nc3ccccc23)c1 | -3 | -6.7 | 1 | 0.9 | · | 1.7 | -0.7 | 3
Cn1nc(-c2ccc(C(=O)N3CCN(Cc4ccccc4)CC3)cc2)c2ccccc2c1=O | -5 | · | ? | -2.4 | 0% | -1.8 | -0.4 | 10
Cn1c(SCc2ccc(Cl)cc2)nnc1C1CC1 | -11 | -2.0 | -5 | 5.9 | 8% | -3.6 | -0.3 | ·
O=C(NCC(O)COc1ccc([N+](=O)[O-])cc1)c1ccccc1 (stereo not drawn) | -6 | 1.8 | 1 | 3.2 | 26% | 0.1 | 1.4 | -4
CNC(=O)c1nnn(-c2ccccc2)c1C(=O)NC | -27 | · | 9 | -3.3 | -6% | 7.6 | -0.6 | -6
O=C(O)c1ccc(C2SCC(=O)N2Cc2ccco2)cc1 (stereo not drawn) | 0 | -2.2 | 0 | 4.5 | 1% | -1.7 | 0.4 | -5
Cc1nc(SCC(=O)Nc2ccc(CN3CCCC3)cc2)c2c(C)c(C)sc2n1 | · | 8.7 | · | 3.8 | · | · | -0.2 | 16
COc1cccc(C(=O)Nc2cc([N+](=O)[O-])ccc2N2CCN(C)CC2)c1 | 12 | 1.4 | -17 | 2.2 | 6% | 4.8 | 1.1 | -3
O=S(=O)(c1cnc[nH]1)N1CCN(c2ccccc2)CC1 | -5 | 5.6 | -2 | 4.9 | 6% | -1.4 | 0.0 | 4
CCOc1ccc(CNc2ncc(-c3ccccc3)n2C)cc1 | 4 | 5.6 | -8 | 2.9 | -14% | -3.5 | 1.8 | -3
O=C(COC(=O)c1ccncc1)Nc1cccc2ccccc12 | · | 0.6 | · | -1.7 | · | · | 0.4 | -1
O=C(Cc1ccccc1)Nc1ccc(CN2CCOCC2)cc1 | -6 | · | -13 | 0.7 | 5% | 0.3 | 0.0 | -2
COc1ccc(CNC(=O)CSc2nc(SC)ns2)cc1 | 11 | -0.3 | -7 | -9.3 | · | -1.9 | 1.4 | -4
CCOC(=O)C1=C(O)/C(=C/c2ccc(OCC(=O)O)c(OC)c2)SC1=Nc1ccc(OCC)cc1 | -25 | -0.4 | 10 | 7.1 | -34% | 1.8 | 0.3 | -3
O=C(Nc1ccccc1)/C(=C/c1cccc(Br)c1)NC(=O)c1ccco1 | 26 | 0.5 | -7 | 0.1 | · | 0.0 | -0.1 | 7
CCc1ccc(NC(=S)NC2CC3CCC(C2)N3Cc2ccco2)cc1 (stereo not drawn) | 13 | · | -15 | -5.5 | -3% | 6.0 | 0.5 | -3
O=C(Cc1c[nH]c2ccccc12)NCC(=O)Nc1ccc(F)c(F)c1F | · | -0.1 | · | -7.8 | 0% | · | -0.8 | 3
COCCn1c(-c2ccc(OC)cc2)nc2oc3cc(OC)ccc3c(=O)c2c1=O | 11 | -8.5 | 25 | 1.7 | 3% | 4.0 | -0.3 | 0

An excerpt from above in order of the Vif TR-FRET value, descending.
mol	Vif TR-FRET
C(=N\Nc1nc(-c2cccnc2)nc2ccccc12)/c1ccccc1	20%
COc1cccc(C(=O)Nc2cc([N+](=O)[O-])ccc2N2CCN(C)CC2)c1	6%
O=C(Cc1ccccc1)Nc1ccc(CN2CCOCC2)cc1	5%

Screens as filed in PubChem BioAssay.
